# VDR inhibitor: blocks the human vitamin D receptor | P11473 | VDR-SRC2-3 peptide fluorescence polarization, 2 h | Potency, µM, for the others: max response, negative = inhibition, most hits filed as inhibitors | actives 0.93% (n = 400,000) | AID 504847; active = well fitted inhibition curve with a large enough effect; inconclusive = small, poorly fitted or top-dose-only effect, or another doubt; inactive = no such curve, though single readings can be large or run the other way; note: series mostly up to about 120 µM
# Target sequence (P11473 whole entry, looked up): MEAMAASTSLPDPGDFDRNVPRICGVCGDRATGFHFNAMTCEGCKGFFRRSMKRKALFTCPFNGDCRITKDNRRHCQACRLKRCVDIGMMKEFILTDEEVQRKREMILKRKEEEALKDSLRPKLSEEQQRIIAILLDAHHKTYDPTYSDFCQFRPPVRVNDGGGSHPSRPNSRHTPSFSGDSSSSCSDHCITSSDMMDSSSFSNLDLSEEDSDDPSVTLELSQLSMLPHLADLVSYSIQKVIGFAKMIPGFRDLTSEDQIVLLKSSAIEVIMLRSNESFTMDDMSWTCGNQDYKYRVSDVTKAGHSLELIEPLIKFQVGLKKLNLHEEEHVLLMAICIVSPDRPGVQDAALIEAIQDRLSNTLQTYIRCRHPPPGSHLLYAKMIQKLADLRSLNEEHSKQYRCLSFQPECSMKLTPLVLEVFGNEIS
#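 Reagent solutions, kept cold and dark, are dispensed first; compounds are then pinned in at 23 nl, plates briefly spun, and incubated 2 h at ambient temperature. Inhibition of VDR–SRC2-3 peptide binding is read by fluorescence polarization.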
# * marks the source's active call; other numbers are inactive results; ? = inconclusive; [ ] = another dose, or the depositor's remark. % is set by controls: 0 for no effect and ±100 for the full control effect; potency is the fitted concentration of half-maximal effect.
# Start of the data: the first 4 compounds (preview)
SMILES,VDR inhibitor
COc1cccc(-c2nc(N3CCCC3)c3ccccc3n2)c1O,-4%
Cc1ccc(Cl)cc1N1CCN(C(=O)Cc2csc(Nc3nc(=S)[nH]c4ccccc34)n2)CC1,4%
COc1ccc(CNc2cc(C)nc3ccc(OC)cc23)cc1,-21%
COc1ccc(S(=O)(=O)NCC(c2ccc3c(c2)OCO3)N2CCOCC2)cc1 (centres undefined),2%

# This part in full, from the start:
SMILES,VDR inhibitor
COc1cccc(-c2nc(N3CCCC3)c3ccccc3n2)c1O,-4%
Cc1ccc(Cl)cc1N1CCN(C(=O)Cc2csc(Nc3nc(=S)[nH]c4ccccc34)n2)CC1,4%
COc1ccc(CNc2cc(C)nc3ccc(OC)cc23)cc1,-21%
COc1ccc(S(=O)(=O)NCC(c2ccc3c(c2)OCO3)N2CCOCC2)cc1 (centres undefined),2%
CCN(CC)c1ccc(/C=C(\C#N)C(=O)c2ccc(Br)cc2)cc1,-19%
O=C(Nc1ccc(Cl)cc1)N1CCC(c2nc(-c3cccs3)no2)CC1,32%[activator]
CN(C(=O)Cn1cc(C(F)(F)F)ccc1=O)c1c(N)n(Cc2ccccc2)c(=O)[nH]c1=O,6%
CC(SCc1ccccc1)C(=O)Nc1ccccc1F (centres undefined),-6%
O=C(CCN1C(=O)CSc2ccccc21)Nc1cccc(C(F)(F)F)c1,-16%
CC1CN(C(=O)N2c3ccccc3Sc3ccccc32)CC(C)O1 (centres undefined),?

# A draw from above in order of molar mass, low to high:
SMILES,VDR inhibitor
CC(SCc1ccccc1)C(=O)Nc1ccccc1F (centres undefined),-6%
O=C(CCN1C(=O)CSc2ccccc21)Nc1cccc(C(F)(F)F)c1,-16%
O=C(Nc1ccc(Cl)cc1)N1CCC(c2nc(-c3cccs3)no2)CC1,32%[activator]

# (listing goes on)
SMILES,VDR inhibitor
O=C(NCc1ccco1)c1c(F)c(F)c(F)c(C(=O)NCc2ccco2)c1F,-4%
Cc1nn(CC#N)c(=O)n1-c1ccc(Cl)cc1,-6%
Cc1ccc(NC(=O)c2cc(S(=O)(=O)N(C)C)ccc2N2CCCC2)cc1S(=O)(=O)N(C)C,-7%
Cc1cccc(C)c1NC(=O)CSc1nc2ccccc2c2nc(CCc3c(C)n[nH]c3C)nn12,1%
CCOC(=O)C1CCCN(C2CC(=O)N(c3cccc(C(F)(F)F)c3)C2=O)C1 (centres undefined),-14%
Cc1ccc(S(=O)(=O)N2CCN(S(=O)(=O)N3CCCCCC3)CC2)cc1,-1%
N#CCC(=O)Nc1ccc(C(=O)Nc2cccc(S(N)(=O)=O)c2)cc1,3%
CCSc1ccccc1C(=O)Nc1cc(C)on1,-1%
COc1ccc(-c2noc(COc3ccc(C)cc3C)n2)cc1OC,4%
COc1ccc(C(=O)N/N=C/C(Br)=C/c2ccccc2)cc1,-10%
COc1ccc(NC(=O)CSc2nnc(-c3ccncc3)n2C)cc1,26%
CCN(C(=O)C1CCCN(c2ncnc3c2nc2n3CCCCC2)C1)c1cccc(Cl)c1 (centres undefined),?
O=C(c1ccc(S(=O)(=O)N2CCCC2)cc1)N(Cc1ccco1)C1CCS(=O)(=O)C1 (centres undefined),-9%
CCOC(=O)c1cc(-c2ccccc2)n(-c2cccc(C(=O)Nc3cccc(C(C)=O)c3)c2)c1C,5%
CSc1ccc(C(=O)N2CCC(n3nccc3NC(=O)C3CC3)CC2)cc1,11%
Cc1ccc(-c2nc(NC(=O)CSc3nnc(C)s3)ns2)cc1,-7%
Cc1cc(Nc2cccc(Cl)c2C)n2ncnc2n1,-17%
COc1ccc(Cn2c(=O)oc3ccccc32)cc1F,-13%
COc1cc(NC(C)CCCN)c2ncccc2c1Oc1ccccc1 (centres undefined),0%
CCc1cccc(NC2c3ccccc3C(=O)N2c2ccc(C)cn2)c1 (centres undefined),-20%
CNC(=O)c1ccc(Nc2nc(-c3ccccc3)nc3ccccc23)cc1,8%
COC(=O)c1ccccc1S(=O)(=O)N(CCCO)Cc1cc2c(C)ccc(C)c2[nH]c1=O,3%
COc1ccc(CNc2nc(SCc3ccc(Cl)cc3)nc3ccccc23)cc1,11%
COc1ccc(-c2ccc(SCC(=O)NCc3ccco3)nn2)cc1,12%
COc1ccc(C(=O)NCC(c2ccc(Cl)cc2)N2CCCCC2)cc1 (centres undefined),2%
O=C(COc1ccc(Cl)cc1)NCCCNC(=O)c1ccccn1,-2%
CCOC(=O)c1c(C2CC2)csc1NC(=O)COC(=O)c1cnc(Cl)c(Cl)c1,-8%
O=C(CC12CC3CC(CC(C3)C1)C2)NCO,-4%
CCOC(=O)c1csc(COc2ccccc2Cl)n1,6%
COc1ccc(Cn2ccn(CC(=O)Nc3cc(C)ccc3C)c(=O)c2=O)cc1,8%
COC(=O)c1ccc2c(=O)[nH]c(COC(=O)c3cccc(S(=O)(=O)N4CCOCC4)c3)nc2c1,-1%
Cc1nnc(NC(=O)c2ccc3c(c2)C(=O)N(CC2CCCO2)C3=O)s1 (centres undefined),7%
O=C(c1ccc(F)cc1)C1CCN(C(=O)N2CCOCC2)CC1,7%
CCn1nc(C(=O)OCC(=O)NC(C)C)c2ccccc2c1=O,?
CCCCc1nn2c(C)c(-c3ccc(OCC)cc3)nc2s1,7%
C#CCn1c(=NC(=O)c2ccc(Cl)s2)sc2cccc(OC)c21,-15%
CC(NC(=O)C1CCCN(S(=O)(=O)c2cnc[nH]2)C1)c1ccccc1 (centres undefined),-14%
O=C(c1csc2c1CCCC2)N1CCN(c2ccccc2)CC1,20%
Cc1ccc(S(=O)(=O)NCCC(=O)Nc2cccc(S(=O)(=O)N3CCCC3)c2)cc1C,-4%
O=C(COC(=O)CNC(=O)C1CCCCC1)NCc1ccccc1,12%
COc1cccc(CNC(=O)COC(=O)C2CC3CCCC(C2)C3=O)c1 (centres undefined),-5%
COc1ccc(-c2noc(N3CCC(C(=O)NC(C)c4ccccc4)CC3)n2)cc1 (centres undefined),10%
COc1ccccc1OCCNC(=O)CCNS(=O)(=O)c1ccc(C)cc1,-12%
O=C(/C=C/c1ccco1)Nc1ccccn1,8%
O=C(c1ccccc1)N(c1ccccc1)C1C=CS(=O)(=O)C1 (centres undefined),-12%
COC(=O)c1ccccc1NC(=O)Nc1cc(C)cc(C)n1,-3%
Cc1cccc(C(=O)Nc2sc3c(c2C(=O)N2CCCCC2)CCC(C)C3)c1 (centres undefined),-14%
Cc1ccc(CNC(=O)/C=C/c2c(Cl)cccc2Cl)cc1,-18%
COCCn1nnnc1C(c1cccs1)N1CCN(c2nc3ccccc3s2)CC1 (centres undefined),8%
COc1cc(OC)c(C(=O)Nc2ccc(S(=O)(=O)Nc3ncccn3)cc2)cc1OC,-2%

# More results
SMILES,VDR inhibitor
O=C(COc1ccccc1)Nc1cccc(S(=O)(=O)N2CCCC2)c1,-1%
COc1cc(S(=O)(=O)N2CCCCC2)ccc1NC=O,15%
COc1ccc(N2CCN(C(=O)c3ccc(F)cc3)CC2)c([N+](=O)[O-])c1,2%
CCN(Cc1ccc(Cl)s1)C(=O)c1cccc(OCc2c(C)noc2C)c1,-17%
CCOc1ccc(C2C(C(=O)Nc3ccc(C)cc3C)=C(C)Nc3c(C(=O)Nc4ccc(C)cc4)cnn32)cc1OC (centres undefined),10%
Clc1cccc(Nc2c3c(nc4ncnn24)CCC3)c1,-13%
OCC[C@H]1C[C@H](O)[C@@H](O)[C@@]2(OCc3ccccc32)O1,4%
COc1ccc(NC(=O)COC(=O)CCSc2ccccc2)cc1OC,-8%
COc1ccc(C(=O)Nc2nc(C)c3cc4c(cc3n2)OCO4)cc1,-7%
CC(C)c1c(C(=O)N/N=C/c2cccnc2)nnn1-c1nonc1N,1%
COC(=O)c1cn(NC(=O)c2ccncc2)c(=O)c2ccccc12,-4%
COc1ccc(/C(O)=C/c2nc3ccc(C(=O)NCCc4cccc(C)c4)cc3[nH]c2=O)cc1OC,14%
Cc1cccc(C)c1NC(=O)C(c1cccc([N+](=O)[O-])c1)N(C)C(=O)c1ccccn1 (centres undefined),13%
COC(=O)c1cc(C)sc1NC(=S)N1CCN(CCc2ccccc2)CC1,-7%
O=C(NC1CCCCC1)C1CCN(c2nnnn2-c2ccccc2)CC1,-8%
CCOc1ccc2cc(C3CC(c4ccco4)=NN3S(C)(=O)=O)c(=O)[nH]c2c1 (centres undefined),?
O=C(NCc1ccccc1)C(=O)Nc1c2c(nn1-c1ccc(F)cc1)CSC2,15%
Cc1sc(NC(=O)c2ccc3ncsc3c2)c(C(N)=O)c1C,-7%
COC(=O)/C(C#N)=C(/Nc1ccc(F)c(Cl)c1)C(F)(F)F,-13%
Cc1occc1C(=O)NNS(=O)(=O)c1ccc(Cl)cc1,-3%
COc1ccc(S(=O)(=O)N2CCOCC2)cc1NC(=O)c1ccc(OC(F)F)cc1,-2%
CCC(NC(=O)c1cc(COc2ccc(C)nc2)on1)c1ccc(C)cc1 (centres undefined),-8%
CSc1ccc(CN2CCN(CC=C(C)C)C(CCO)C2)cc1 (centres undefined),-11%
Cc1ccc(C)c(N(CC(=O)NC2CCCC2)C(=O)CCC(=O)Nc2nccs2)c1,3%
COc1ccccc1-c1ocnc1C(=O)Nc1ccc(N2CCOCC2)cc1N1CCOCC1,-13%
CCN(CCCNC(=O)CCn1c(=O)[nH]c2ccccc2c1=O)c1ccccc1,-13%
COc1cccc(C(=O)N(C)CC(=O)Nc2cccc3ccccc23)c1,10%
COc1ccc(CC2(CO)CCN(Cc3ccncc3)CC2)cc1,-4%
O=C(Cc1ccccc1F)NNC(=O)c1cccs1,17%
C=CCn1c(COc2cccc(C)c2C)nnc1SCC(=O)N1CCN(c2ccccc2)CC1,8%

# Of the compounds above, these have a cyano group:
SMILES,VDR inhibitor
CCN(CC)c1ccc(/C=C(\C#N)C(=O)c2ccc(Br)cc2)cc1,-19%
Cc1nn(CC#N)c(=O)n1-c1ccc(Cl)cc1,-6%
N#CCC(=O)Nc1ccc(C(=O)Nc2cccc(S(N)(=O)=O)c2)cc1,3%
COC(=O)/C(C#N)=C(/Nc1ccc(F)c(Cl)c1)C(F)(F)F,-13%

# Further records follow:
SMILES,VDR inhibitor
COc1ccc(N2CCN(Cc3nc(-c4ccc(Cl)cc4Cl)no3)CC2)cc1,-13%
CC(C(=O)Nc1ccc(F)c(F)c1F)N(C)CC(=O)Nc1ccccc1Br (centres undefined),-12%
O=C(CP(=O)(c1ccccc1)c1ccccc1)Nc1nc2ccc(Cl)cc2s1,-19%
CCN1CCN(c2ccc(NC(=O)c3cc(S(=O)(=O)N4CCCC4)ccc3Cl)cc2)CC1,-4%
CC(C)(C)c1ccccc1OCCOCCNCc1ccccc1,-12%
COc1ccccc1C(=O)Nc1ccnn1C1CCN(CC2CC=CCC2)CC1 (centres undefined),-27%
O=S(=O)(Nc1cccc(-c2ccc3nncn3n2)c1)c1ccc(Cl)s1,-8%
COc1ccc(-c2noc(-c3ccccc3OCC(=O)Nc3ccc(C(C)=O)cc3)n2)cc1,9%
O=c1c2ccc(Cl)cc2[nH]c(=S)n1Cc1cccnc1,-1%
CC(C(=O)N1CCN(C=O)CC1)N1C(=O)c2ccccc2C1=O (centres undefined),-15%
Cc1cc(=O)oc2cc(NC(=O)c3cc([N+](=O)[O-])ccc3N3CCOCC3)ccc12,0%
C=CCNC(=O)Nc1ccc(OCC)cc1,-10%
Cc1cc(C)cc(NC(=O)Cc2csc(C)n2)c1,2%
CC(=O)N1c2ccc(Cl)cc2C2OCCC2C1c1ccco1 (centres undefined),-4%
COC(=O)c1cc(Cn2nc(C(=O)O)c3ccccc3c2=O)oc1C,-1%
COc1ccc(NC(=O)Nc2cnccn2)c(OC)c1,17%
O=C(NC1CCN(Cc2ccccc2)CC1)C1CCCN(c2nnc(-n3cccc3)s2)C1 (centres undefined),-5%
Cc1onc(C(=O)N2CCN(c3ccccc3F)CC2)c1-c1ccccc1Cl,-5%
Cc1cc(NC(=O)c2cc(-c3ccc(OC(C)C)cc3)nc3ccccc23)no1,0%
O=C(Cn1cc(C(=O)c2ccccc2)c(=O)c2cc3c(cc21)OCCO3)Nc1ccc(F)c(F)c1,-13%
O=C(NCc1ccc(F)cc1)c1ccc(S(=O)(=O)Nc2cccc(C(F)(F)F)c2)cc1,1%
CCSc1cc(C2C(C#N)=C(N)OC(C)=C2C(=O)OC)c(C)o1 (centres undefined),-20%
COc1ccc(/C=C/C(=O)OCC(=O)Nc2cc(C(N)=O)cc(C(N)=O)c2)cc1,8%
Cc1ccc(CNC(=O)C2CCC(=O)N(CCc3ccccc3)C2)s1 (centres undefined),7%
Clc1cccc(OCc2nc(-c3ccncc3)no2)c1,-19%
O=S(=O)(Nc1nc2ccccc2nc1Nc1cccc(S(=O)(=O)N2CCCCC2)c1)c1ccccc1,5%
C[C@]12CCC3c4ccc(O)cc4CCC3C1CC(O)C2O (some centres undefined),-3%
O=c1c2c(-c3ccc([N+](=O)[O-])cc3)ccnc2[nH]n1-c1ccccc1,4%
CCCCOC(=O)c1ccc(NC(=O)C(=O)NCc2ccncc2)cc1,-19%
CCN1CCN(CC(=O)Nc2sc3c(c2C#N)CCC3)CC1,4%

# Reformatted tab-delimited: 4 of the compounds above
Molecule	VDR inhibitor
CCOc1ccc(C2C(C(=O)Nc3ccc(C)cc3C)=C(C)Nc3c(C(=O)Nc4ccc(C)cc4)cnn32)cc1OC (centres undefined)	10%
CCN(C(=O)C1CCCN(c2ncnc3c2nc2n3CCCCC2)C1)c1cccc(Cl)c1 (centres undefined)	?
Cc1nn(CC#N)c(=O)n1-c1ccc(Cl)cc1	-6%
COc1ccc(-c2noc(N3CCC(C(=O)NC(C)c4ccccc4)CC3)n2)cc1 (centres undefined)	10%

# The list goes on.
SMILES,VDR inhibitor
N#Cc1cccc(CN2CCC(=O)N([C@H](CO)c3ccccc3)CC2)c1,-5%
O=C(NNC1CC(=O)N(c2ccc(Cl)cc2)C1=O)c1ccccc1Cl (centres undefined),-4%
O=C(c1cc(-c2ccccc2Cl)nc2ccccc12)N1CCN(c2ccccn2)CC1,3%
COc1cc(/C=N/Nc2nc3ccccc3s2)cc([N+](=O)[O-])c1O,-11%
Cc1cccc(CCNS(=O)(=O)c2ccc3c(c2)CCN3C(=O)CCC(=O)O)c1,-18%

# Screens (PubChem BioAssay)

# A portion of the library (hit frequency here may not be typical).
